Screening results from PubChem.
BJeLR lethal – MLPCN primary cell-based screen for lethality selective to Ras in HRASV12 cells; BJeLR (HRASV12) viability, CellTiter-Glo ATP luminescence, 48 h; reference of the scale not given here; inhibition, % (no concentration beside the values); 300,000 compounds, 0.17% hits; AID 1554, 2009;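 active means replicate mean above 50%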;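 further: 50 nL library stock added to about 25 µL; numbers are from one replicate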
PrP UTR inh – inhibition of PrP 5' UTR reporter expression; 340,000 compounds, 0.35% hits; inhibition, % (no concentration beside the values); AID 488862, 2010; cell-based PrP 5' UTR mRNA reporter, plate reader;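 active means every replicate at 50% or more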;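 further: 0 = median of the neutral control wells; tested in H4 reporter cells; numbers are from one replicate; inactives centre near -14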
Mtb hypoxia inh – PubChem AID 1159583 | M. tuberculosis hypoxia-regulated fluorescent reporter, fluorescence | 300,000 compounds, 0.1% hits | fluorescence inhibition, % (test concentration not listed);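 active means 35 to 45% if threefold the growth effect, above 45% if 1.5-fold the growth effect; inactive means the rest, general growth blockers included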;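 further: wells of about 50 µL received 100 nL stock; 0% = vehicle wells and 100% = reference inhibitor wells; whole bacteria with a GFP reporter of the hypoxia response; strong numbers were not always called active; many hits fall short of the cut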
Sa ugtP lethal – growth inhibition of ugtP-null S. aureus, primary screen, RN4220 ugtP deletion, OD600; 16 h; some inactives read as strong as hits; growth inhibition, % (test concentration not listed); 330,000 compounds, 0.54% hits;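 active means z-score under -3 and OD600 up to 0.15 on both plates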;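 further: plate controls were untreated wells for no effect and antibiotic for full effect; wells of about 80 µL received 100 nL stock; the first replicate is given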
RN4220 kill – growth inhibition of S. aureus RN4220, primary screen, OD600; 16 h; inhibition, % (no concentration beside the values); 330,000 compounds, 0.33% hits;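 active means z-score of -3 or lower and OD600 up to 0.18 on both plates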;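 further: plate controls were untreated cells for no effect and reference antibiotic for full effect; stock transfer was 100 nL into about 80 µL; one replicate is shown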
Bead autofluor – counter-screen for toxin protease inhibitors: compound fluorescence; compound autofluorescence counterscreen, microsphere flow cytometry; active compounds read high; fluorescence intensity (no concentration beside the values); 360,000 compounds, 3.1% hits; AID 624483;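 active means at least 3 SD above the mean of all compounds, about 16000 in these data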;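 further: 100 nL of 1 mM stock went into each well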
Mtb hypoxia inh growth – recorded beside Mtb hypoxia inh, whose call it bears; growth inhibition, %; measured here: M. tuberculosis growth (absorbance);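 0% = vehicle and 100% = reference antibiotic; read after six days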
* marks the source's active call; other numbers are inactive results; nt = no result given. An unsorted share of the library. About 4% of those tested had a hit in this group.

smiles	BJeLR lethal	PrP UTR inh	Mtb hypoxia inh	Mtb hypoxia inh growth	Sa ugtP lethal	RN4220 kill	Bead autofluor
COc1ccc([N+](=O)[O-])cc1NC(=O)c1cc(C)c(C)o1	6.7	-10.8	15.9	-1.9	1.0	4.3	2036
CCOc1ccc2ccccc2c1C=NNC(=O)c1ccncc1	nt	nt	nt	nt	15.9	5.2	nt
CC(C(=O)Nc1nc2ccccc2s1)n1cc([N+](=O)[O-])cn1 (stereo not drawn)	-0.7	-20.5	-8.0	-0.3	7.6	1.3	4189
CSc1cc(/C=N/O)c(SC)s1	8.6	-20.7	nt	nt	nt	nt	2281
Cc1cccc(C)c1NC(=O)CN(C)C(=O)C(c1ccccc1)c1ccccc1	-12.7	-8.9	9.9	10.4	4.9	0.0	2586
Brc1ccc(CNc2cc3c(cc2Br)OCCO3)cc1	2.9	-20.3	4.1	7.8	36.3	-8.0	4957
CCCc1nnc(NC(=O)OCC)s1	1.7	-16.2	10.7	2.0	2.8	-0.2	4481
CCC1(CC)C(=O)N=C2c3ccccc3C(=O)N21	-1.3	-9.1	nt	nt	-5.2	5.3	4403
Oc1ccc2n[nH]nc2c1	-1.7	-18.5	3.1	-2.0	3.2	3.5	2327
CCN(CC)C(=O)Oc1ccc2c(=O)c(-c3ccccc3)coc2c1	8.3	-138.2	-18.9	-4.6	-1.5	-2.0	21592*
CCN1C(=O)C2C(c3cccc(F)c3)NC(CC)(C(=O)OC)C2C1=O (stereo not drawn)	-5.0	-18.5	5.9	-3.9	9.9	2.5	4465
COc1cccc(NC(=O)N(CCCN2CCOCC2)C(C)c2cc3ccccc3o2)c1 (stereo not drawn)	-5.7	-14.0	-3.9	8.7	-9.6	-6.0	21426*
O=C(N/N=C/c1ccc2c(c1)OCO2)c1ccc2ccccc2n1	-1.9	-12.7	nt	nt	nt	nt	2362
COc1cc(N2C(=O)C=CC2=O)c(OC)cc1Cl	5.4	-5.8	1.1	-11.4	2.1	1.7	nt
Cc1ncsc1CCOC(=O)c1cccnc1	-0.5	-20.1	2.9	9.3	1.3	6.4	10437
CCOC(=O)Cn1nc(/C=C/c2ccccc2)ccc1=O	1.2	-11.7	nt	nt	19.3	2.8	3868
CCN1C(=O)/C(=C2/Sc3ccc(OC)cc3N2C)SC1=Nc1ccc(OC)cc1	6.2	-21.4	13.6	7.4	8.2	5.7	4623
O=C(O)CCCC(=O)N1N=C(c2ccccc2)CC1c1ccc2c(c1)OCO2 (stereo not drawn)	-0.8	-25.4	4.1	-2.5	6.8	1.4	3537
CCCCN1C(=S)NC[C@@H]1Cc1ccccc1	-7.8	-3.7	nt	nt	nt	nt	3939
Cc1ccc(S(=O)(=O)NN2C(=O)/C(=C/c3ccc(C(=O)O)cc3)SC2=S)cc1	-7.6	-2.6	1.7	8.0	16.8	12.2	3190
Cc1cc(O)cc(O)c1C(=O)Cc1cscn1	-0.8	-13.8	nt	nt	-3.7	1.4	5199
Cc1nnc(SCC2=C(C(=O)O)N3C(=O)C(NC(=O)Cn4nc(C)c(Cl)c4C)C3SC2)s1 (stereo not drawn)	-2.4	-12.0	nt	nt	97.9*	99.6*	3936
CCN(CC)C(=O)CSc1nc2ccc(NC(=O)CSc3nccn3C)cc2s1	-6.5	-20.3	-1.3	-2.0	4.5	5.2	9123
O=c1c2ccccc2c(C=Nc2ccc(S(=O)(=O)N3CCCCC3)cc2)c(O)n1-c1ccc(Cl)cn1	-4.4	-16.1	-5.8	3.8	1.1	2.4	6826
CC(=O)c1ccc(N2CCN(C(=O)C3CCC3)CC2)cc1	-13.8	-23.7	4.2	-0.4	7.3	5.1	12358
Cc1ccc(N2C(=O)C3C4C=CC(C4)C3C2=O)cc1C (stereo not drawn)	0.4	-6.7	2.4	5.5	7.5	5.1	22226*
O=c1c2ccccc2nc(-c2ccc([N+](=O)[O-])cc2)n1O	17.8	-12.1	8.3	8.5	-5.1	13.3	4837
O=c1[nH]c(C2CCN(S(=O)(=O)c3ccccc3)CC2)nc2c1nnn2Cc1ccc2c(c1)OCCO2	5.6	-10.1	-13.2	7.6	-1.3	2.9	5548
COc1cc(C(=O)NCc2nnc(SCC(=O)Nc3cc(C)cc(C)c3)o2)cc(OC)c1OC	2.1	-12.0	nt	nt	-2.4	-4.6	nt
O=C(CSc1ccc(Cl)cc1)Nc1ncccn1	-6.5	-10.7	6.2	-1.1	61.4	0.1	11004

Single records, as listed above. Order of screens: BJeLR lethal, PrP UTR inh, Mtb hypoxia inh, Mtb hypoxia inh growth, Sa ugtP lethal, RN4220 kill, Bead autofluor
Profile of `Cc1ccc(S(=O)(=O)NN2C(=O)/C(=C/c3ccc(C(=O)O)cc3)SC2=S)cc1` : -7.6, -2.6, 1.7, 8.0, 16.8, 12.2, 3190
Profile of `COc1cccc(NC(=O)N(CCCN2CCOCC2)C(C)c2cc3ccccc3o2)c1` (stereo not drawn) : -5.7, -14.0, -3.9, 8.7, -9.6, -6.0, 21426*

Additional structures follow:
smiles	BJeLR lethal	PrP UTR inh	Mtb hypoxia inh	Mtb hypoxia inh growth	Sa ugtP lethal	RN4220 kill	Bead autofluor
CN(C)S(=O)(=O)c1ccc(NC(=O)N2CCN(c3cccc(C(F)(F)F)c3)CC2)cc1	2.7	-18.0	-3.6	1.5	-22.2	3.0	3173
Cc1ccc(-n2nc(-c3cccnc3)cc2C(=O)N2CCOCC2)c(C)c1	-9.3	-5.8	nt	nt	3.7	2.2	3542
CSc1sc(-c2nnc(SCC(=O)Nc3ccc(Cl)cc3)n2C)c2c1C=CCC2	-4.1	nt	4.3	0.7	2.6	2.8	nt
CCN1CCN(C(=O)Nc2cc(Cl)ccc2OC)CC1	-3.1	-13.4	5.6	10.9	-1.7	3.4	2656
Cc1cc(C)c(C)c(S(=O)(=O)NCC(=O)Nc2ccccc2F)c1C	9.7	-13.3	20.5	4.9	0.3	3.9	7008
CN(C)c1cccc(C(=O)OC(C(=O)Nc2ccc(Cl)cc2C(F)(F)F)c2ccccc2)c1 (stereo not drawn)	0.4	-18.4	-7.0	-0.4	-18.2	0.8	2317
Cc1ccc(C)c(Cn2c(=O)n(CCC(=O)NCc3ccco3)c(=O)c3ccccc32)c1	-3.6	-19.9	nt	nt	9.5	0.3	4200
Cc1ccc(S(=O)(=O)N2C(=O)CCC2C(=O)O/N=C(\N)c2ccccc2)cc1 (stereo not drawn)	2.8	-1.0	8.6	17.7	-0.1	4.7	5479
NC(=O)c1ccc(NCCc2ccccc2)c([N+](=O)[O-])c1	1.8	-9.6	6.6	8.1	15.5	10.7	4364
O=C(c1ccc(Cl)c(Cl)c1)N1CCOCC1	-5.6	-19.8	nt	nt	9.9	-0.3	4371
CN(C)c1ccc(CNC(=O)c2cc(S(=O)(=O)N3CCCC3)cn2C)cc1	0.7	-19.4	-3.5	3.1	-2.1	5.6	6660
COc1ccccc1NC(=O)c1ccc2c(c1)nnn2C	-13.1	-4.3	4.0	7.2	4.0	1.1	3212
Cc1ccc(-c2nc(-c3cccnc3)no2)c(C)c1	-7.6	-117.8	11.8	1.5	7.0	1.6	6822
O=C(NN=Cc1ccc(OC(F)F)cc1)c1ccc(Br)cc1	nt	nt	2.8	3.8	-8.6	6.5	nt
Cc1ccc(SCC(=O)NN=Cc2ccco2)cc1	nt	nt	6.5	2.3	1.2	3.4	nt
COc1ccc2nc(N=NC3=C(O)CC(C)(C)CC3=O)sc2c1	-1.9	-6.7	4.9	9.0	-4.2	-2.2	4708
COc1ccc(NC(=S)N(CCc2ccc(OC)c(OC)c2)Cc2ccccn2)cc1	4.6	-7.0	-4.4	1.5	1.3	3.2	4128
COc1cc(/C=C/C(=O)c2ccc(C)cc2)ccc1OCC#N	-14.0	-10.8	5.8	14.3	1.7	13.2	9755
CCOc1ccc(NC(=S)Nc2cc(C)[nH]n2)cc1	9.0	-22.1	7.4	5.5	-0.8	1.6	4020
Cc1cc(=O)oc2ccc(OCC(=O)N3CCc4ccccc43)cc12	-0.3	-28.5	0.5	4.2	2.5	-0.6	4365
C=COC(=O)c1sc2nc(C)cc(C)c2c1N	-9.2	-34.7	-5.8	6.9	3.0	4.7	4649
Cc1cc(C)cc(OC(=O)CS(=O)c2ccc(C(F)(F)F)cc2[N+](=O)[O-])c1 (stereo not drawn)	-5.2	-34.7	5.2	7.9	9.5	1.6	10026
Cc1ccc(C(=O)N/C(=C\c2ccccc2)C(=O)NCCN2CCOCC2)cc1	-3.5	-18.5	1.9	6.7	5.8	3.2	3791
COc1cc(CNCc2ccc(OC)cc2OC)cc(OC)c1	-2.2	-3.9	-3.2	-4.0	4.9	3.8	4163
COc1ccc(C2CC(c3ccccc3)Nc3ncnn32)cc1 (stereo not drawn)	-5.7	-14.7	nt	nt	11.7	-0.5	6247
CCOC(=O)C1CCN(S(=O)(=O)c2ccc(-c3nc4ccccc4s3)s2)CC1	13.1	nt	nt	nt	-4.2	3.3	nt
COc1ccc(NC(=O)N2CCN(c3ccc([N+](=O)[O-])cc3)CC2)cc1OC	1.6	-2.0	2.5	9.0	16.3	9.3	4109
CCOc1ccc(S(=O)(=O)N2CCN(C(=S)NCc3ccco3)CC2)cc1	-2.1	-30.3	-5.4	10.5	-2.0	-3.6	2474
COc1cc(C(=O)NN=C(C)Cc2ccccc2)cc(OC)c1OC	nt	nt	2.8	3.4	-2.9	5.4	nt
O=C(CN1C(=O)S/C(=C\c2ccc(O)c([N+](=O)[O-])c2)C1=O)Nc1ccc(N2CCOCC2)cc1	nt	-4.2	9.8	16.0	1.5	-0.3	5433
Nc1cc(C(=O)O)ccc1Nc1ccc(F)c(F)c1	nt	5.1	nt	nt	-6.4	2.1	4887
CC(C)c1ccc(S(=O)(=O)N2CCN(C(C)C(=O)N3CCCC3)CC2)cc1 (stereo not drawn)	nt	-6.6	2.7	-3.2	5.8	-0.4	3319
CCCCCOc1ccc(C(=O)N(Cc2ccco2)C2CCS(=O)(=O)C2)cc1 (stereo not drawn)	-7.2	-11.9	-4.0	13.5	1.9	3.9	11272
O=[N+]([O-])c1ccc(C=Nn2c(COc3ccccc3)n[nH]c2=S)cc1	nt	nt	11.7	10.0	2.0	6.7	nt
CCN(CC)C(=O)C(C)OC(=O)COc1ccc(Cl)cc1Cl (stereo not drawn)	-5.7	-5.6	8.9	7.1	7.2	6.5	2085
Cc1cc(-c2cccc(Br)c2)c(C#N)c(N)n1	nt	-2.0	1.1	10.8	4.4	1.3	4216
COc1cc(OC)c(NC(=O)c2ccco2)cc1Cl	-7.2	-2.3	-1.2	9.0	-7.4	0.1	8236
COc1ccc(CCn2c(C)c(C(C)=O)c3cc(OC(=O)c4ccco4)ccc32)cc1OC	12.2	4.1	2.5	16.5	-0.5	-0.1	4394
O=C1C=C(c2cc(C(F)(F)F)cc(C(F)(F)F)c2)CC(c2ccc(Cl)cc2)C1 (stereo not drawn)	nt	nt	8.9	3.1	7.6	0.6	nt
N=C1c2ccccc2CN1NC(=O)CC12CC3CC(CC(C3)C1)C2	-2.7	-3.5	15.2	-0.9	1.8	1.1	3084
COc1ccc(Cl)c(NC(=O)Cn2nnc(-c3ccccc3N)n2)c1	3.5	-24.3	8.8	5.3	-12.4	0.8	8149
CCN1CCN(C(=O)c2cn(CCOC)c(=O)c3c2c2ccccc2n3C)CC1	-3.8	-10.6	9.0	12.0	0.0	1.8	21067*
COc1ccc(N(C(=O)c2snc(C(N)=O)c2N)C(C(=O)NC2CCCC2)c2ccc(F)cc2)c(OC)c1 (stereo not drawn)	1.5	-25.4	4.8	-3.8	20.3	4.2	3611
Cn1c(NCC(O)c2ccccc2)nc2c1c(=O)n(Cc1ccc(Cl)cc1)c(=O)n2C (stereo not drawn)	-12.6	-13.8	nt	nt	-1.0	-1.1	3039
O=C(NCCN1CCOCC1)c1ccc(CSc2nc3ccncc3n2Cc2ccc(F)cc2)cc1	-1.0	-7.7	7.7	-0.8	10.3	0.9	2705
O=C(CC12CC3CC(CC(C3)C1)C2)Nc1nncs1	6.8	20.5	4.3	-2.1	5.7	6.2	4142
CCOC(=O)c1ccc(-n2c(C)nc3c(cnn3-c3ccccc3C)c2=O)cc1	6.4	-12.0	-2.1	3.8	1.9	4.1	5136
